Screens from PubChem BioAssay.
MARV entry inh: Marburg virus entry inhibition | Marburg virus pseudotyped entry inhibition, cell reporter; control for the full effect not named in the record; about a third of the inactives were read at about 46 µM | Potency, µM (series often up to 37.8 µM), without a hit: at the highest dose activity change, negative = inhibition, actives largely listed as inhibitors | actives 1.8% (n = 300,000) | AID 540276; active = well fitted inhibition curve with a large enough effect; inconclusive = small, poorly fitted or top-dose-only effect, or effect the other way; inactive = flat fitted curve, though single readings scatter; tested in HEK293 cells; about a fifth of its hits are not listed in these tables; also: % is scaled to controls: 0 for no effect and ±100 for the full control effect; luciferase read-out
SARS PLpro yeast: inhibitors of SARS-CoV papain-like protease in yeast; S. cerevisiae expressing SARS-CoV PLpro, growth rescue; control for the full effect not named in the record; AID 485353; Potency, µM (doses to about 32.9 µM), without a hit: top-dose activity, positive = growth rescue; actives 0.19% (n = 330,000); active means well fitted rising curve with a large enough effect; inconclusive means small, poorly fitted or top-dose-only effect; inactive means no such curve, though single readings can be large or run the other way; also: 0% is about no effect; nearly all actives have a fitted effect of over 55% in size; growth read by luminescence after 48 h
2A StopGo: lowers the luciferase signal of an FMDV 2A StopGo reporter. human cells with a luciferase reporter of 2A StopGo recoding; control for the full effect not named in the record. Potency, µM (titrated, usually from 57.9 µM), for inactives: at the highest dose signal change, negative = less light. actives 1.2% (n = 410,000). AID 1159524; active = well fitted falling curve with a large enough effect; inconclusive = small, poorly fitted or top-dose-only effect; inactive = no such curve, though single readings can be large or run the other way; tested in HEK293T cells; also: % is scaled to controls: 0 for no effect and ±100 for the full control effect; nearly all actives have a fitted effect of over 45% in size; luciferase light after 4 h
Cruzain inh Det: cruzain (T. cruzi) inhibition with detergent; P25779; purified cruzain, Z-FR-AMC fluorescence, 0.01% Triton; Potency, µM, without a hit: max response, negative = inhibition, most hits filed as inhibitors; actives 0.43% (n = 200,000);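 also: plate controls were neutral wells for no effect and buffer without enzyme for full effect; nearly all actives have a fitted effect of over 40% in size; top concentration of the series not given in the record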
Target sequence (P25779 123-467 limits assumed): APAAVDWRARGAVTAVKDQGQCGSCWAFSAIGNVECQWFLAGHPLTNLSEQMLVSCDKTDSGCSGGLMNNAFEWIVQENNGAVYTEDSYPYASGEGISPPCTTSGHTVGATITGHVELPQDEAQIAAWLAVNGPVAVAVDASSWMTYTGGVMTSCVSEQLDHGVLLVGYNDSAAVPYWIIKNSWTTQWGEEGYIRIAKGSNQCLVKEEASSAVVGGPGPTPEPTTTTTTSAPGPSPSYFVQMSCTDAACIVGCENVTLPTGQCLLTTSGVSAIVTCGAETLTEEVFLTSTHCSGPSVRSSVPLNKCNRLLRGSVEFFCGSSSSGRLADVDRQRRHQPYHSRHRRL
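Read-out: AMC fluorescence (360 nm excitation, 450 nm emission), four reads over 2 min, first-to-third difference used. Conditions: cruzain 1.5 nM, Z-FR-AMC 2 uM, pH 5.5 acetate, 5 mM DTT, 0.01% Triton X-100.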
NS1 inh: inhibitors of influenza NS1 protein function; Potency, µM (doses to about 46.1 µM), for inactives: top-dose activity, positive = more growth; AID 2326; actives 0.4% (n = 270,000); S. cerevisiae slowed by influenza A NS1, growth recovery by OD600; active means well fitted rising curve with a large enough effect; inconclusive means small, poorly fitted or top-dose-only effect; inactive means no such curve, though single readings can be large or run the other way; also: nearly all actives have a fitted effect of over 50% in size
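Recovery from NS1-induced slow growth read by OD600 in budding yeast switched to galactose assay medium (pH 6.0, -URA) at 1:100 dilution. Compound 23 nl per well; the matching strain lacking NS1 serves as control.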
Lassa entry inh: Lassa virus entry inhibition. Lassa virus pseudotype entry inhibition, cell reporter; control for the full effect not named in the record. Potency, µM (titrated, usually from 37.9 µM), for inactives: at the top dose activity change, negative = inhibition, most hits filed as inhibitors. actives 1.2% (n = 300,000). AID 540256; active means well fitted inhibition curve with a large enough effect; inconclusive means small, poorly fitted or top-dose-only effect, or effect the other way; inactive means flat fitted curve, though single readings scatter; tested in HEK293 cells; also: % is scaled to controls: 0 for no effect and ±100 for the full control effect; nearly all actives have a fitted effect of over 50% in size; luciferase read-out
Cruzain inh noDet: inhibitors of Trypanosoma cruzi cruzain without detergent | purified cruzain, Z-FR-AMC fluorescence, no detergent | actives 2.3% (n = 200,000) | P25779 | Potency, µM, for inactives: max response, negative = inhibition, hits mostly inhibitors;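 also: plate controls were enzyme without inhibitor for no effect and buffer without enzyme for full effect; nearly all actives have a fitted effect of over 40% in size; top concentration of the series not given in the record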
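Detergent-free condition (0.00005% Triton X-100) in acetate buffer pH 5.5 with DTT. 1.5 nM enzyme and compound were pre-mixed 15 min, then 2 uM Z-FR-AMC substrate added; reaction progress from fluorescence change between first and third reads (60 s).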
RE007 growth inh: less growth of the S. pombe RE007 Vpr strain; S. pombe RE007 Vpr strain, BacTiter-Glo ATP luminescence, 24 h; control for the full effect not named in the record; Potency, µM (doses to about 92.2 µM), for the others: top-dose activity change, negative = less growth; actives 0.21% (n = 360,000); active = well fitted falling curve with a large enough effect; inconclusive = small, poorly fitted or top-dose-only effect; inactive = no such curve, though single readings can be large or run the other way;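 also: % is scaled to controls: 0 for no effect and ±100 for the full control effect; nearly all actives have a fitted effect of over 50% in size; the assay follows cell death caused by Vpr and the record does not say whether a fall means rescue or toxicity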
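Fission yeast RE007 carrying one integrated HIV-1 vpr copy, seeded at OD 0.01 in PMG+AL medium with 23 nL pinned compound. Grown 24 h at 30 degrees; viability read by BacTiter-Glo luminescence after 5 min.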
The depositor's hits bear a star; ? = inconclusive; nt = not tested or not shown; & = joins results of further samples; [ ] = another dose, or the depositor's remark. Unless noted, calls follow the shape of the dose curve; as a rule, active = well fitted curve in the direction sought with a large enough effect; inconclusive = small, poorly fitted or top-dose-only effect, or another doubt; inactive = no such curve, though single readings can be large; an effect the other way counts as inactive or inconclusive. Potency is read from the fitted curve at half-maximal effect.

Results follow in this order: Cruzain inh noDet, RE007 growth inh, Lassa entry inh, Cruzain inh Det, NS1 inh, 2A StopGo, MARV entry inh, SARS PLpro yeast
CCOC(=O)c1cc2c(=O)n3ccccc3nc2n(CCCOC)c1=NC(=O)C(C)Oc1ccccc1 (stereo not drawn)
    -4%, nt, -3%[46.1 µM], -2.9%, nt, 14%, ?, nt
Cc1ccccc1C(=O)Nc1ccccc1C(=O)N/N=C\c1ccco1
    0%, -8%, 3%, 1.9%, 7%, 15%, 14%[46.1 µM], -11%
O=C(CSc1nc2cccnc2n1Cc1ccccc1)NC1CCCCC1
    1%, 3%, 10%, -6.5%, -3%, -17%, -21%, -15%
Clc1cccc(CSc2nnc(-c3sccc3-n3cccc3)o2)c1
    -17%, -6%, ?, -0.8%, -21%, ?, -28%, -8%
COC(=O)C1=C(C)N=C2SCCC(=O)N2C1c1ccc(C(=O)OC)cc1 (stereo not drawn)
    -3%, 1%, 40%[14.3 µM], -5.6%, -1%, 6%, -11%, 5%
Cc1ccc(CNc2cc(-c3nn4c(C)nnc4s3)ccc2C)s1
    -10%, -11%, -29%, -9.5%, -70%, -21%, ?, -8%
Cc1nc2nc[nH]n2c(=O)c1NS(=O)(=O)c1ccc(F)cc1
    nt, -17%, -1%, nt, nt, -3%, 8%[46.1 µM], 0%
O=C(NCC1OCCc2ccccc21)c1ccc(NC(=O)c2ccc(Cl)cc2)cc1 (stereo not drawn)
    ?, -5%, ?, 0.9%, -1%, 0%, -18%, 24%
Cc1ccc(CNC(=O)CS(=O)(=O)Cc2nc(-c3ccc(C)cc3)oc2C)cc1
    nt, -3%, nt, nt, 3%, 27%, nt, 5%
COc1cccc(OCc2cc(C(=O)N3CCN(C(C)=O)CC3)no2)c1
    nt, 15%, nt, nt, 10%, 72%[activator], nt, 19%
COc1ccc(C)cc1NS(=O)(=O)c1ccc2c(c1)CCCN2C(C)=O
    5%, nt, -22%[46.1 µM], -1.4%, nt, 81%[activator], nt, nt
COc1ccccc1CCC(=O)Nc1ccc2c(c1)CN(Cc1ccc(CO)o1)CC2
    nt, 4%, -11%, nt, 27%, -11%, 4%, -2%
COc1ccccc1N1CCN(c2nc3ccc(C(=O)c4ccccc4)cc3n3c(C)nnc23)CC1
    6%, nt, 11%[46.1 µM], -3.5%, nt, -4%, nt, nt
COc1ccc(N2C(=O)C(C)C(Cc3ccc(C)cc3)C2=O)cc1 (stereo not drawn)
    nt, 1%, -21%, nt, 3%, 0%, 4%, 8%
Cc1cc(S(=O)(=O)NCc2cccnc2)ccc1F
    nt, -7%, ?, nt, 12%, 17%, 4%[46.1 µM], 1%
Cn1c(SCC(=O)Nc2ccc(F)cc2)nnc1-c1cccnc1
    -8%, -1%, nt, -2.1%, 3%, -10%, nt, -1%
CCn1c(C(=O)N2CCC(C(=O)NCCc3ccc(OC)cc3OC)CC2)cc2sccc21
    ?, nt, nt, -3.4%, nt, ?, ?, nt
COC(=O)c1c(C)[nH]c(C(=O)COC(=O)Cc2ccc3c(c2)OCCO3)c1C
    ?, 12%, 3%, -10%, -7%, 6%, 1%, -4%
CCOC(=O)N1CCN(C(=O)c2cn(C)c3ccc(S(=O)(=O)N4CCC(C)CC4)cc3c2=O)CC1
    nt, -10%, 4%[46.1 µM], nt, nt, -6%, 9%[46.1 µM], 1%
C[n+]1c2n(c3ccccc31)N=C(c1ccc(Br)cc1)CS2
    -18%, ?, ?, -2.3%, -1%, ?, ?, -27%
S=C(c1ccccc1)N1CCCC1
    nt, -4%, ?, nt, 9%, 0%, 27%, -13%
COc1ccc2c(c1OC)C(=O)OC2Nc1nc(-c2ccc(-c3ccccc3)cc2)cs1 (stereo not drawn)
    7%, ?, ?, -4.9%, -23%, ?, -38%, -85%
COc1cc(OC)c(NC(=O)CCc2ccccc2)cc1Cl
    -4%, -22%, 0%, -5.9%, -52%, -6%, 2%, -2%
Cn1c(CNc2ccccn2)c(C#N)c2ccccc21
    -12%, 15%, -6%, 2.8%, -4%, 0%, -1%&-1%, 3%
CC(/C=C/c1ccccc1)=N/NC(=O)c1cc([N+](=O)[O-])cc([N+](=O)[O-])c1
    ?, nt, ?, 6.7%, 27%, 0%, ?, 5%
COc1ccc(C2C(C(N)=O)=C(C)Nc3nc(-c4ccccc4Cl)nn32)c(OC)c1 (stereo not drawn)
    -1%, 20%, -1%, 0.1%, -11%, -6%, 16%, 9%
Cc1nnc(SCC(=O)NNC(=O)c2ccco2)n1-c1ccccc1
    nt, -7%, 1%, nt, 0%, 0%, -28%, 0%
COc1ccc(-c2nnc(SCC(=O)/C(C#N)=C(\C)N)o2)cc1
    -6%, -8%, ?, -0.8%, 3%, -32%, ?, 1%
COc1cc(-c2nn3c(Cc4ccccc4)nnc3s2)cc(OC)c1OC
    -8%, 0%, ?, 2.9%, -38%, -29%, ?, 4%
CCOc1ccccc1C(=O)N[C@H](C(=O)OCC(=O)Nc1nnc(-c2ccccc2)o1)C(C)C
    nt, -1%, 5%[46.1 µM], nt, nt, 3%, 0%[46.1 µM], nt
Cc1c(C#N)sc(C(N)=O)c1C
    nt, -12%, 27%[46.1 µM], nt, nt, -8%, -12%[46.1 µM], 2%
COc1ccc(Nc2nc(N)nc(SCc3nnc(C)s3)n2)cc1
    5%, 1%, ?, -0.1%, -2%, 54%[activator], 7%, -8%
Cc1ccccc1NS(=O)(=O)c1ccc(F)cc1
    14%, -6%, -10%, 5.8%, -4%, -11%, 13%, 21%
COc1cccc(-c2nnc(SCC(=O)Nc3cc(C)ccc3OC)n2N)c1
    1%, -1%, 4%, 3.9%, -19%, 4%, -29%, 1%
COc1cccc(NC(=O)C(NCCC(C)C)c2ccccc2)c1 (stereo not drawn)
    1%, 4%, -15%, 2.9%, -6%, 17%, -25%, -7%
CCOC(=O)c1ccccc1NC(=O)c1cn(CC)c2nc(C)ccc2c1=O
    18%, 1%, nt, -1.7%, -21%, 0%, -1%, -15%
Cn1cccc1/C=N\NC(=O)C1COc2ccc(C(C)(C)C)cc2O1 (stereo not drawn)
    nt, -15%, nt, nt, 2%, ?, nt, -10%
O=C(CCC(=O)Nc1nnc(C2CCCCC2)s1)Nc1ccc(F)cc1
    nt, 4%, -3%[46.1 µM], nt, 7%, 11%, 12%[46.1 µM], 4%
COCCNC(=O)C(C)OC(=O)c1cc2occc2n1C (stereo not drawn)
    -6%, 8%, 1%, 1.8%, -7%, nt, 2%, 1%
COc1ccc(-c2nn(-c3ccccc3)cc2/C=C2/SC(=S)N(CCCC(=O)O)C2=O)c(C)c1
    nt, -21%, ?, nt, 18%, -28%, ?, 1%
COc1cccc(NC(=O)CS(=O)(=O)c2cccc3nsnc23)c1
    nt, 6%, 27%, nt, 2%, 0%, 8%[46.1 µM], -1%
CCCc1ccc(Oc2cc(C)nc(N3CCOCC3)n2)cc1
    ?, 1%, ?, 4.0%, -29%, -1%, -19%, 13%
CC(=O)N(Cc1ccccc1)c1c(N)nc(N)[nH]c1=O
    nt, 13%, 2%, nt, nt, -6%, -6%[46.1 µM], nt
OC1/C(=C/c2ccccc2C(F)(F)F)N2CCC1CC2 (stereo not drawn)
    nt, -6%, -2%[46.1 µM], nt, 4%, 4%, 24%[46.1 µM], 0%
Cc1ccc2nc(N3CCOCC3)c3nncn3c2c1
    -5%, 4%, 5%, -3.3%, -18%, -2%, -16%, 23%

An excerpt from the list above, as a working copy:
Results follow in this order: Cruzain inh noDet, RE007 growth inh, Lassa entry inh, Cruzain inh Det, NS1 inh, 2A StopGo, MARV entry inh, SARS PLpro yeast
OC1/C(=C/c2ccccc2C(F)(F)F)N2CCC1CC2 (stereo not drawn)
    nt, -6%, -2%[46.1 µM], nt, 4%, 4%, 24%[46.1 µM], 0%
Cc1ccc2nc(N3CCOCC3)c3nncn3c2c1
    -5%, 4%, 5%, -3.3%, -18%, -2%, -16%, 23%

Remaining list, next part.
Results follow in this order: Cruzain inh noDet, RE007 growth inh, Lassa entry inh, Cruzain inh Det, NS1 inh, 2A StopGo, MARV entry inh, SARS PLpro yeast
CC(C)OCCCNC(=O)C1CCC(=O)N1C1CCCC1 (stereo not drawn)
    -7%, 5%, 11%, 1.2%, 0%, -5%, 16%, 11%
Cc1ccc(CNS(=O)(=O)c2ccc3c(c2)N(C)CCO3)cc1
    nt, 5%, nt, nt, -4%, 33%[activator], nt, 5%
Cc1cc(C)n(-c2ccc(NC(=O)C3CCCCN3C(=O)c3ccc(C)s3)cc2)n1 (stereo not drawn)
    nt, -8%, ?, nt, -2%, -24%, -26%, -1%
Cc1cc(NC(=O)COn2nnc3ccc(Cl)cc32)no1
    -9%, -7%, 14%, 1.0%, -10%, -9%, ?, 6%

Structural class, those above with an aryl thioether with sulfur outside any ring.
Results follow in this order: Cruzain inh noDet, RE007 growth inh, Lassa entry inh, Cruzain inh Det, NS1 inh, 2A StopGo, MARV entry inh, SARS PLpro yeast
O=C(CSc1nc2cccnc2n1Cc1ccccc1)NC1CCCCC1
    1%, 3%, 10%, -6.5%, -3%, -17%, -21%, -15%
Clc1cccc(CSc2nnc(-c3sccc3-n3cccc3)o2)c1
    -17%, -6%, ?, -0.8%, -21%, ?, -28%, -8%
Cn1c(SCC(=O)Nc2ccc(F)cc2)nnc1-c1cccnc1
    -8%, -1%, nt, -2.1%, 3%, -10%, nt, -1%
Cc1nnc(SCC(=O)NNC(=O)c2ccco2)n1-c1ccccc1
    nt, -7%, 1%, nt, 0%, 0%, -28%, 0%
COc1ccc(-c2nnc(SCC(=O)/C(C#N)=C(\C)N)o2)cc1
    -6%, -8%, ?, -0.8%, 3%, -32%, ?, 1%
COc1ccc(Nc2nc(N)nc(SCc3nnc(C)s3)n2)cc1
    5%, 1%, ?, -0.1%, -2%, 54%[activator], 7%, -8%
COc1cccc(-c2nnc(SCC(=O)Nc3cc(C)ccc3OC)n2N)c1
    1%, -1%, 4%, 3.9%, -19%, 4%, -29%, 1%
